# mut p53 SMM: binders of human mutant p53; small molecule microarray binding, anti-GST fluorescence; calls only; 0.4% of 17,000 active; AID 624136;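 active means compounds whose four printed spots each glow above background more than chance allows, each with a p-value under 7%; compounds were printed on slides so no solution concentration is given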;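 further: about 2 pmol printed per array spot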
# STAT3 SMM: binds human STAT3 on microarray. AID 624138. calls only. 0.2% of 17,000 active. Small molecule microarray, His-STAT3 binding, anti-His fluorescence;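 active means compounds whose four printed spots each show fluorescence over background unusually high for their array block, chance value under 7%; compounds were printed on slides so no solution concentration is given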;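 further: about 2 pmol printed per array spot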
# c-Myc SMM: binds human c-Myc on microarray | small molecule microarray, His-c-Myc binding, anti-His fluorescence | AID 624141 | P01106 | 1.5% of 17,000 active | calls only;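 active means spot fluorescence over background with P-value below 7% in all four replicate spots, showing protein binding; compounds were printed on slides so no solution concentration is given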;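 further: score is binary with 100 for all four spots passing and 0 otherwise; about 2 pmol printed per array spot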
# Target sequence (P01106 whole entry, looked up): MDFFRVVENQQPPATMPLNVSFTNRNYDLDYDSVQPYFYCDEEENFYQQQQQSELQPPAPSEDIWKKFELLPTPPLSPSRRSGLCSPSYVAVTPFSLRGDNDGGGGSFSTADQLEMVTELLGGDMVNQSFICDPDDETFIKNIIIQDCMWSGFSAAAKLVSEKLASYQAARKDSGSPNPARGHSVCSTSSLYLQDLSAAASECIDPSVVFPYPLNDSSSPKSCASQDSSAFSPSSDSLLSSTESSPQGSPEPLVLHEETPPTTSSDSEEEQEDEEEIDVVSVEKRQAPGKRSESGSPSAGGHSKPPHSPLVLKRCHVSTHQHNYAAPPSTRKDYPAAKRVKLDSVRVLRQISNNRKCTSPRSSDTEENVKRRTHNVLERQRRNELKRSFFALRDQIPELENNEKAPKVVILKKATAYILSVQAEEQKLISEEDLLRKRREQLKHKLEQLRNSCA
# ID4 SMM: ID4 (human) binding. small molecule microarray, Flag-ID4 binding, fluorescence F/B. AID 624137. P47928. calls only. 1.2% of 31,000 active;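 active means spot signal over background at p below 0.07 in all four prints; compounds were printed on slides so no solution concentration is given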;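 further: a binder raises fluorescence above local background on the spot; about 2 pmol printed per array spot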
# Target sequence (P47928 whole entry, looked up): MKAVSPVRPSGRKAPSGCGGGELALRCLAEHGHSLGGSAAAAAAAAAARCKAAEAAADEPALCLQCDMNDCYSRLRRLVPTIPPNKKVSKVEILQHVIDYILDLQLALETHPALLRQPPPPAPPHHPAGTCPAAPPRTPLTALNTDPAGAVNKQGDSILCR
# Calls only; i = inactive; / = not tested or not shown; + = active, no number. These rows are one share of the data (hit frequency here may not be typical).
SMILES,mut p53 SMM,STAT3 SMM,c-Myc SMM,ID4 SMM
CC(C)NC(=O)N(C)C[C@@H]1OCCCC[C@H](C)Oc2ccc(NC(=O)Cc3ccccc3)cc2C(=O)N([C@H](C)CO)C[C@H]1C,i,i,i,i
C[C@H](CO)N1C[C@H](C)[C@H](CN(C)C(=O)Nc2ccccc2)Oc2c(NC(=O)C3CCOCC3)cccc2C1=O,i,i,i,i
Cn1cc(C(=O)OCC2CCN(CCNS(C)(=O)=O)CC2)c2ccccc21,i,i,i,i
CC[C@@H]1Cn2c(c3nc(-c4ccccc4)nc-3n(C)c2=O)N1,i,i,i,i
CNC[C@H]1Oc2ccc(NC(=O)Nc3c(C)noc3C)cc2CC(=O)N([C@@H](C)CO)C[C@H]1C,i,i,i,i
C[C@@H]1CN([C@H](C)CO)C(=O)c2cc(NC(=O)C3CC3)ccc2O[C@H]1CN(C)Cc1ccc(C(F)(F)F)cc1,i,i,i,i
COc1ccc(S(=O)(=O)N(C)C[C@@H]2Oc3c(NS(=O)(=O)c4cn(C)cn4)cccc3C(=O)N([C@@H](C)CO)C[C@H]2C)cc1,i,i,i,i
Cc1noc(C)c1NC(=O)Nc1ccc2c(c1)C(=O)N([C@H](C)CO)C[C@@H](C)[C@H](CN(C)C(=O)Nc1c(C)noc1C)OCCCC[C@@H](C)O2,i,i,i,i
NC[C@@H]1O[C@H](c2ccccc2)Cc2c1ccc(O)c2O,i,i,i,i
CCCN(C)C[C@@H]1OCCCC[C@@H](C)Oc2ccc(NC(=O)NC(C)C)cc2C(=O)N([C@@H](C)CO)C[C@@H]1C,i,i,i,i
C=C1CCC2C(C)(CO)CCCC2(C)C1CC/C(C)=C/C(=O)O (stereo unspecified),i,i,i,i
C[C@@H]1CN([C@H](C)CO)C(=O)Cc2cc(NC(=O)Cc3ccccc3)ccc2O[C@H]1CN(C)S(C)(=O)=O,i,i,i,/
C=CC1(C)C=C2CCC3C(C)(C)C(O[C@@H]4O[C@@H](CO)[C@H](O)[C@H]4O)CCC3(C)C2CC1O[C@@H]1O[C@H](CO)[C@@H](O)[C@H](O)[C@H]1O (stereo partly specified),i,i,i,/
Cc1sc(NC(=O)c2cc(-c3ccccn3)nc3ccccc23)c(C(=O)NC2CCCCC2)c1C,i,i,i,i
C[C@@H]1CC[C@]2(C(=O)OC3OC(COC4OC(CO)C(O[C@@H]5O[C@@H](C)[C@H](O)[C@@H](O)[C@H]5O)C(O)C4O)C(O)C(O)C3O)CC[C@]3(C)C(=CCC4[C@@]5(C)CC[C@@H](O)[C@](C)(C(=O)O)C5CC[C@]43C)C2[C@H]1C (stereo partly specified),i,i,i,i

# Record cards (already shown). Order of screens: mut p53 SMM | STAT3 SMM | c-Myc SMM | ID4 SMM
# Results for `COc1ccc(S(=O)(=O)N(C)C[C@@H]2Oc3c(NS(=O)(=O)c4cn(C)cn4)cccc3C(=O)N([C@@H](C)CO)C[C@H]2C)cc1` : i | i | i | i
# Results for `C=C1CCC2C(C)(CO)CCCC2(C)C1CC/C(C)=C/C(=O)O` (stereo unspecified) : i | i | i | i

# Continued.
SMILES,mut p53 SMM,STAT3 SMM,c-Myc SMM,ID4 SMM
C[C@H](CO)N1C[C@H](C)[C@H](CN(C)Cc2ccccc2)OCCCC[C@H](C)Oc2ccc(NC(=O)CCCN(C)C)cc2C1=O,i,i,i,i
O=C1CS(=O)(=O)C(c2ccccc2)N1c1ccc(Cl)cc1 (stereo unspecified),i,i,i,i
C[C@@H]1CN([C@@H](C)CO)C(=O)Cc2cc(NC(=O)Cc3cn(C)c4ccccc34)ccc2O[C@H]1CN(C)Cc1ccc(C(=O)O)cc1,i,i,i,i
CNC[C@H]1Oc2c(NC(=O)Nc3ccccc3)cccc2C(=O)N([C@H](C)CO)C[C@@H]1C,i,i,i,i
Cc1cc(NC(=O)C2CCCCC2C(=O)O)ccc1NC(=O)c1ccccc1 (stereo unspecified),i,i,i,i
C[C@H](CO)N1C[C@H](C)[C@H](CN(C)Cc2ccc(Oc3ccccc3)cc2)Oc2c(NS(C)(=O)=O)cccc2C1=O,i,i,i,i
C[C@H]1CN([C@@H](C)CO)C(=O)c2cc(NC(=O)Nc3cccc4ccccc34)ccc2O[C@H]1CN(C)S(=O)(=O)c1ccc(Cl)cc1,i,i,i,/
COc1cccc(S(=O)(=O)NCc2ccc(C(=O)Nc3ccc4sc(C)nc4c3)cc2)c1,i,i,i,i
COc1ccc(NC(=O)O[C@H]2[C@H](OC(=O)Nc3ccc4c(c3)OCO4)[C@@H](OC(=O)Nc3ccc4c(c3)OCO4)[C@@H](OC)O[C@@H]2CO)cc1,i,i,i,i
O=c1c2ccccc2nc(CSc2nc(Cc3ccccc3)nc3ccccc23)n1-c1ccccc1,i,i,i,i
Cc1noc(C)c1NC(=O)N(C)C[C@@H]1Oc2ncc(C#Cc3ccc(C(F)(F)F)cc3)cc2C(=O)N([C@H](C)CO)C[C@@H]1C,i,i,i,i
COc1ccc(NC(=O)O[C@H](c2ccc(OC)c(O)c2)[C@@H](CCO)OC)cc1,i,i,i,/
C[C@H](CO)N1C[C@H](C)[C@H](CN(C)Cc2ccc(C(F)(F)F)cc2)Oc2c(NC(=O)c3ccncc3)cccc2C1=O,i,i,i,i
CC(C)NC(=O)N(C)C[C@H]1OCCCC[C@@H](C)Oc2ccc(NS(C)(=O)=O)cc2C(=O)N([C@@H](C)CO)C[C@@H]1C,i,i,i,i
Cc1noc(C)c1NC(=O)Nc1ccc2c(c1)CC(=O)N([C@H](C)CO)C[C@@H](C)[C@@H](CN(C)C(=O)Nc1c(C)noc1C)O2,i,i,i,/

# Structures listed so far with a halogen, in the order listed:
SMILES,mut p53 SMM,STAT3 SMM,c-Myc SMM,ID4 SMM
C[C@@H]1CN([C@H](C)CO)C(=O)c2cc(NC(=O)C3CC3)ccc2O[C@H]1CN(C)Cc1ccc(C(F)(F)F)cc1,i,i,i,i
O=C1CS(=O)(=O)C(c2ccccc2)N1c1ccc(Cl)cc1 (stereo unspecified),i,i,i,i
C[C@H]1CN([C@@H](C)CO)C(=O)c2cc(NC(=O)Nc3cccc4ccccc34)ccc2O[C@H]1CN(C)S(=O)(=O)c1ccc(Cl)cc1,i,i,i,/
Cc1noc(C)c1NC(=O)N(C)C[C@@H]1Oc2ncc(C#Cc3ccc(C(F)(F)F)cc3)cc2C(=O)N([C@H](C)CO)C[C@@H]1C,i,i,i,i
C[C@H](CO)N1C[C@H](C)[C@H](CN(C)Cc2ccc(C(F)(F)F)cc2)Oc2c(NC(=O)c3ccncc3)cccc2C1=O,i,i,i,i

# Continuation:
SMILES,mut p53 SMM,STAT3 SMM,c-Myc SMM,ID4 SMM
C=CCNC(=O)[C@@H]1[C@H]2C(=O)O[C@H](c3ccccc3)[C@H](c3ccccc3)N2[C@H](c2ccc(O)cc2)[C@@]12C(=O)Nc1ccc(C#CCCO)cc12,i,i,i,i
C[C@@H]1O[C@@H](Oc2ccc3c(=O)c(-c4ccc(O)cc4)coc3c2)[C@H](O)[C@H](O)[C@H]1O,i,i,i,i
CC(=O)Nc1ccc(NS(=O)(=O)c2ccc(Cl)c(C(=O)O)c2)cc1,i,i,i,i
CCc1ccccc1NC(=O)CCCN1C(=O)c2ccccc2C1=O,i,i,i,i
O=C(O)c1cccc(-n2nnnc2SCc2ccccn2)c1,i,i,i,i
COc1ccccc1NC(=O)CNS(=O)(=O)c1ccccc1,i,i,i,i
C[C@@H]1CN([C@@H](C)CO)C(=O)CCCn2nncc2CO[C@H]1CN(C)C(=O)Nc1ccc(-c2cccs2)cc1,i,i,i,/
COc1ccc(NC(=O)Nc2ccc3c(c2)CC(=O)N([C@@H](C)CO)C[C@@H](C)[C@@H](CN(C)Cc2ccc(-c4ccccc4)cc2)O3)cc1,i,i,i,/
C/C=C/[C@H](CC(=O)N(CCO)Cc1ccccc1)[Si](C)(C)c1ccc(OC)cc1,i,i,i,/
C[C@@H]1CN([C@@H](C)CO)C(=O)c2cc(NC(=O)CCCN(C)C)ccc2O[C@H]1CN(C)S(=O)(=O)c1cn(C)cn1,i,i,i,i
COc1ccc(S(=O)(=O)Nc2ccc3c(c2)C(=O)N([C@@H](C)CO)C[C@H](C)[C@H](CN(C)Cc2ccccc2)O3)cc1,i,i,i,/
C[C@H](CO)N1C[C@H](C)[C@H](CN(C)Cc2ccc(C(=O)O)cc2)Oc2c(NS(=O)(=O)c3cccs3)cccc2C1=O,i,i,i,i
Cc1ccc(S(=O)(=O)N(CC(=O)O)c2ccc(Cl)c(C(F)(F)F)c2)cc1,i,i,i,i
C[C@@H]1CCCCO[C@H](CN(C)S(=O)(=O)c2ccccc2)[C@@H](C)CN([C@@H](C)CO)C(=O)c2cc(NC(=O)CCC(F)(F)F)ccc2O1,i,i,i,i
CCCCc1ccc(-c2csc(NC(=O)c3ccccc3[N+](=O)[O-])c2C(N)=O)cc1,i,i,i,i
C[C@@H]1CN([C@@H](C)CO)C(=O)c2cc(NC(=O)Nc3ccc(C(F)(F)F)cc3)ccc2O[C@@H](C)CCCCO[C@H]1CN(C)C,i,i,i,i
Cc1noc(C)c1S(=O)(=O)N(C)C[C@@H]1Oc2ccc(NS(=O)(=O)c3cn(C)cn3)cc2CC(=O)N([C@H](C)CO)C[C@H]1C,i,i,i,i
COc1cc(/C=C/c2cc(O)cc(O)c2)ccc1O[C@@H]1O[C@H](CO)[C@@H](O)[C@H](O)[C@H]1O,i,i,i,i
O=C(C1=C[C@H](C2CC2)C[C@H](OCCCCO)O1)N1CCOCC1,i,i,i,i
C[C@H](CO)N1C[C@H](C)[C@@H](CN(C)S(=O)(=O)c2cccs2)Oc2ccc(NC(=O)c3ccncc3)cc2C1=O,i,i,i,i
C[C@@H]1CN([C@@H](C)CO)C(=O)CCCn2nncc2CO[C@@H]1CN(C)Cc1ccncc1,i,i,i,i
NC(=O)c1ccccc1NC(=O)COc1cc(Cl)c(Cl)cc1Cl,i,i,i,i
COCCOC(=O)N1C(=O)[C@@]2(c3ccccc31)[C@H](C(N)=O)[C@H]1C(=O)O[C@H](c3ccccc3)[C@H](c3ccccc3)N1[C@@H]2c1ccc(O)cc1,i,i,i,i
COC(=O)c1cc(C)cc(O)c1C(=O)c1c(O)cccc1O,i,i,i,/
C[C@@H]1CN([C@H](C)CO)C(=O)Cc2cc(NC(=O)NC3CCCCC3)ccc2O[C@H]1CN(C)Cc1ccccc1,i,i,i,i
COC(=O)C1=C/c2ccccc2C(C2CC2)N(C)/C=C\1C(=O)OC (stereo unspecified),i,i,i,i
COc1ccc(CN(C)C[C@@H]2Oc3ccc(NC(=O)Cc4ccccc4)cc3C(=O)N([C@@H](C)CO)C[C@@H]2C)cc1,i,i,i,i
CNC[C@@H]1OCc2cnnn2CCCC(=O)N([C@H](C)CO)C[C@@H]1C,i,i,i,i
CC(C)NC(=O)N(C)C[C@H]1Oc2ccc(NS(=O)(=O)c3cn(C)cn3)cc2CC(=O)N([C@H](C)CO)C[C@H]1C,i,i,i,i
CC(=O)NNC(=O)N1Cc2ccccc2Oc2ccc(Cl)cc21,i,i,i,+

# Another view of part of the listing above:
C[C@@H]1CN([C@H](C)CO)C(=O)c2cc(NC(=O)C3CC3)ccc2O[C@H]1CN(C)Cc1ccc(C(F)(F)F)cc1
  mut p53 SMM = i
  STAT3 SMM = i
  c-Myc SMM = i
  ID4 SMM = i

C[C@@H]1CN([C@H](C)CO)C(=O)Cc2cc(NC(=O)NC3CCCCC3)ccc2O[C@H]1CN(C)Cc1ccccc1
  mut p53 SMM = i
  STAT3 SMM = i
  c-Myc SMM = i
  ID4 SMM = i

# Following part
SMILES,mut p53 SMM,STAT3 SMM,c-Myc SMM,ID4 SMM
COc1ccc(NC(=O)Nc2ccc3c(c2)C(=O)N([C@@H](C)CO)C[C@H](C)[C@@H](CN(C)C)O3)cc1,i,i,i,i
CC(C)NC(=O)N(C)C[C@@H]1OCCCC[C@@H](C)Oc2ccc(NS(C)(=O)=O)cc2C(=O)N([C@@H](C)CO)C[C@H]1C,i,i,i,i
C[C@H]1CN([C@@H](C)CO)C(=O)c2cc(NC(=O)NC3CCCCC3)ccc2O[C@H]1CN(C)C(=O)NC1CCCCC1,i,i,i,i
C[C@H](NC[C@H](O)CP(=O)(O)CC1CCCCC1)c1ccc(Cl)c(Cl)c1,i,i,i,i
CC(C)C1NC(=O)/C(=C/c2cnc[nH]2)NC1=O (stereo unspecified),i,i,i,i
COC(=O)Cc1c(C)c2cc(Cl)c(OC(C)C(C)=O)cc2oc1=O (stereo unspecified),i,i,i,i
C[C@@H]1CN([C@H](C)CO)C(=O)c2cc(NC(=O)Nc3ccccc3)ccc2O[C@@H]1CN(C)C(=O)Nc1ccccc1,i,i,i,i
C[C@@H]1CN([C@@H](C)CO)C(=O)c2cc(NS(C)(=O)=O)ccc2O[C@@H](C)CCCCO[C@@H]1CN(C)C(=O)c1ccccc1,i,i,i,+
Cc1noc(C)c1NC(=O)Nc1cccc2c1O[C@H](CN(C)CC1CC1)[C@H](C)CN([C@H](C)CO)C2=O,i,i,i,i
C[C@H](CO)N1C[C@H](C)[C@H](CN(C)Cc2ccc(C(F)(F)F)cc2)Oc2ccc(NC(=O)C3CC3)cc2CC1=O,i,i,i,i
Cc1noc(C)c1NC(=O)Nc1cccc2c1O[C@@H](CN(C)CC1CC1)[C@H](C)CN([C@@H](C)CO)C2=O,i,i,i,i
COc1cc(CO)ccc1OC(C)=O,i,i,i,i
COc1ccc(CN(C)C[C@@H]2Oc3ccc(NC(=O)Cn4cnnn4)cc3C(=O)N([C@@H](C)CO)C[C@H]2C)cc1,i,i,i,i
NC(=O)c1ccc(-n2c(CCC(=O)O)ccc2-c2ccccc2)cc1,i,i,i,i
CN1C(=O)c2ccccc2NC(=O)/C1=C\c1ccccc1,i,i,i,/

# Compound activity: PubChem, Broad Institute
